Assay outcomes: PubChem BioAssay, ICCB-Longwood Screening Facility, Harvard Medical School
Choline anaer gr: choline-fed anaerobic bacterial growth inhibition; Gram-negative bacterium anaerobic choline minimal medium, absorbance growth; stronger effect = lower value; many inactives read as strong as hits in the columns shown; calls only; 55,000 compounds, 0.2% hits;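 active = growth z-score on choline under -2 at 7 or 20 h with little or no fall on glycerol, limits in tiers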;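 also: stock transfer was 300 nL into about 50 µL; the organism is E. coli; final concentration not given here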
Choline anaer gr early: also measured in Choline anaer gr; calls as there; z-score; measured here: choline growth z-score, timepoint 1;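 score of optical density at 7 h as mean of two plates; lower means less growth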
The depositor's hits bear a star; i = inactive; & = joins results of further samples.

Every second line gives: Choline anaer gr | Choline anaer gr early
O=C(Cn1ncn2c(cc3sccc32)c1=O)NC1CCCc2ccccc21 (stereo not given)
→ i | 0.31
Cc1cc(C)nc(NC(c2cccc(F)c2)c2cc(C)sc2NC(=O)c2ccccc2)n1 (stereo not given)
→ i | -0.66
Cc1ccc(C(=O)N2CCCCC2CCN2CCOCC2)s1 (stereo not given)
→ i | 0.61
O=C(Nc1ccc(F)cc1)C1CCCN(c2nc3cccnc3s2)C1 (stereo not given)
→ i | 0.27
CCOc1cccc(-c2noc(Cn3cnc4c(nnn4-c4ccccc4OC)c3=O)n2)c1
→ i | 1
COc1ccc(OC)c(NC(=O)Cn2cnc3c2c(=O)n(C)c(=O)n3C)c1
→ i | -1.1
CCCNC(=O)CC1CCN(S(=O)(=O)c2ccc(Br)s2)CC1
→ i | -0.82
CCOC(=O)c1nc2ccccc2n(C)c1=O
→ i | 0.26
O=C(NCCC1=CCCCC1)c1nc(Nc2ccccc2)c2ccccc2n1
→ i | 1.3
CN(C)c1ccc(C(CNC(=O)c2cccc(Br)c2)N(C)C)cc1 (stereo not given)
→ i | -0.02
Cc1ccc(C)c(NC(=O)c2cnc3ccccn3c2=O)c1
→ i | 0.89
CCc1nnc(-c2ccc(S(=O)(=O)N3CCC(C)CC3)o2)o1
→ i | 0.57
CC(Oc1ccccc1Cl)C(=O)Nc1onc2c1CCCC2 (stereo not given)
→ i | 0.57
O=S(=O)(c1ccc(-c2ccno2)s1)N1CCCCCC1
→ i | -0.08
Cc1cc(C)n2nc(CN(c3ccc(F)cc3)S(=O)(=O)c3ccccc3)nc2n1
→ i | -1.4
Nc1c(C(=O)NCC2CCCO2)sc(=S)n1-c1ccc(Cl)cc1 (stereo not given)
→ i | -1.2
CCc1ccc(C2C3=C(CC(c4ccccc4O)CC3=O)Nc3onc(C)c32)cc1 (stereo not given)
→ i | -0.82
Cc1ccc(-c2nc(C(=O)Nc3ccc(F)cc3)c3n2CCCCC3)cc1
→ i | 0.26
CCS(=O)(=O)Nc1ccc(N2CCCC2)cc1C(=O)O
→ i | 1.3
Cc1cccc(-c2noc(-c3cccnc3N3CCC(C(=O)NCCc4ccccc4)CC3)n2)c1
→ i | 1.4
COCCCNC(=O)C1CCN(C(=O)c2oc3cc4sc(N(C)C)nc4cc3c2C)CC1
→ i | -1.6
Cc1ccccc1-c1noc(CCCn2c(=O)[nH]c3cc4c(cc3c2=O)OCO4)n1
→ i | 0.37
Cc1cc(C(=O)N2CCN(c3ccccc3)CC2)no1
→ i | 0.22
Cc1ccc(NC(=O)c2nnc(CCCC(=O)NCCc3c[nH]c4ccc(C)cc34)s2)cc1
→ i | 0.64
Cc1cc2nn(-c3ccc(F)cc3)nc2cc1NC(=O)c1ccc2c(c1)OCCO2
→ i | -0.36
Cc1cccc2sc(N(CCCN(C)C)C(=O)c3ccccc3Cl)nc12
→ i | -1.9
CCOc1ccc(NC(=O)c2nc(-c3ccc(C)c(S(=O)(=O)N4CCCCC4)c3)no2)cc1
→ i | -0.31
O=C(CSc1n[nH]c(=O)c2cc(-c3ccc(F)cc3)nn12)c1ccc2c(c1)OCO2
→ i | -0.67
COc1cc(Nc2ncc3c(n2)CCN(S(=O)(=O)c2ccc(C)c(C)c2)C3)cc(OC)c1
→ i | 0.27
CC(=O)N[C@@H](Cc1c[nH]c2ccccc12)C(=O)OCc1cc(C(F)(F)F)cc(C(F)(F)F)c1
→ i | 0.95

Sorted by formula weight (ascending): three of the compounds above
Every second line gives: Choline anaer gr | Choline anaer gr early
CN(C)c1ccc(C(CNC(=O)c2cccc(Br)c2)N(C)C)cc1 (stereo not given)
→ i | -0.02
O=C(CSc1n[nH]c(=O)c2cc(-c3ccc(F)cc3)nn12)c1ccc2c(c1)OCO2
→ i | -0.67
Cc1cccc(-c2noc(-c3cccnc3N3CCC(C(=O)NCCc4ccccc4)CC3)n2)c1
→ i | 1.4

In the list so far, 2 have a furan ring, fused or not:
Every second line gives: Choline anaer gr | Choline anaer gr early
CCc1nnc(-c2ccc(S(=O)(=O)N3CCC(C)CC3)o2)o1
→ i | 0.57
COCCCNC(=O)C1CCN(C(=O)c2oc3cc4sc(N(C)C)nc4cc3c2C)CC1
→ i | -1.6

(more compounds)
Every second line gives: Choline anaer gr | Choline anaer gr early
O=C(c1ccccc1Cl)N1CCN=C1N1CCCC1
→ i | -0.48
CCS(=O)(=O)NCc1cccn1Cc1cccc(C)c1
→ i | -0.98
O=C(CSc1nc2c(sc3ncccc32)c(=O)n1Cc1ccc(F)cc1)Nc1ccc(F)c(F)c1
→ i | 0.6
CCCc1ccc(S(=O)(=O)Nc2ccc3nncn3n2)cc1
→ i | 0.19
CC1CS(=O)(=O)N(c2ccc(S(=O)(=O)Nc3ccc(N(C)C)cc3)cc2)C1=O (stereo not given)
→ i | -1.1
Cc1ccc(-c2noc(-c3nn(-c4cccc(F)c4)ccc3=O)n2)cc1
→ i | -0.74
O=C(O)c1cc(N2CCN(CC(=O)N3CCCCC3)CC2)ccc1NC(=O)C1CCC1
→ i | 0.4
CCC1CCCCN1CCCN1C(=O)c2cc3occc3n2CC1(C)C(=O)NC1CCC(C)CC1 (stereo not given)
→ i | 0.71
Cc1cc2c(cc1S(=O)(=O)N1CCCC(C(=O)N3CCC(N(C)C(C)C)CC3)C1)OCC(=O)N2 (stereo not given)
→ i | 0.12
Cc1ccc(-c2ccc(SCc3nc(-c4ccc(C)cc4)no3)nn2)cc1
→ i | 1.7
O=C(Nc1ccc(N2CCOCC2)cc1)c1cccc(-c2cc(NC3CCCCC3)ncn2)c1
→ i | -0.95
Cc1cccc(CNC2=NCCNC23CCN(S(=O)(=O)c2ccccc2C)CC3)c1
→ i | -1.1
CCc1nn(-c2ccccc2)c2c1CN(C(=O)NCC(=O)OC)C(c1ccccc1)c1cccn1-2 (stereo not given)
→ i | -0.81
Clc1ccc(N2CCN(c3ccccc3)CC2)nn1
→ i | -1.5
Cc1cc(C(Nc2ccccn2)c2ccc3c(c2)OCO3)c(NC(=O)c2ccccc2)s1 (stereo not given)
→ i | 0.5
Cc1ccc(-c2nc(CSCC(=O)NC3CCCCC3)no2)cc1
→ i | -0.36
NS(=O)(=O)c1ccc(CCNC(=O)c2csc3c2CCCC3)cc1
→ i | -0.47
Cc1cc(OCc2nc(C)c(C(=O)Nc3nnc(C4CC4)s3)s2)ccc1Cl
→ i | -0.68
CC(C)Cn1c(=O)c(-c2ccc(C(=O)Nc3ccc4c(c3)OCCO4)cc2)nc2ccccc21
→ i | 1.1
CC(C)(C)NC(=O)NCCCn1c(C(F)(F)F)nc2cccnc21
→ i | -0.51
O=C(NCc1ccccc1Cl)c1cccc(Oc2cc(-c3cccc(F)c3)ncn2)c1
→ i | 1.9
Cc1cc(=O)n2[nH]c(CN(c3ccccc3)S(=O)(=O)c3ccc(Cl)cc3)nc2n1
→ i | 0.36
Cc1ccc(/C=C/c2nn3c(-c4ccoc4C)nnc3s2)cc1C
→ i | 0.36
c1nc(N2CCCC2)c2nc3n(c2n1)CCCC3
→ i | 0.08
Cc1ccc(-c2noc(C(=O)N3CCOCC3)n2)cc1S(=O)(=O)N1CCc2ccccc2C1
→ i | 0.89
O=S(=O)(Nc1cccc(-c2nnc(-c3ccccc3)o2)c1)c1ccc(Cl)cc1
→ i | 0.98
CCCCCc1nnc(NC(=O)Nc2[nH]c(C)c(C(=O)OCC)c2C)s1
→ i | 0
NS(=O)(=O)c1ccc(CCNC(=O)CCCN2C(=O)c3cccnc3Sc3ccccc32)cc1
→ i | -0.18
O=C(CCc1nc(CSc2nnc(-c3ccncc3)o2)no1)Nc1ccc(Cl)cc1F
→ i | 0.08
Cn1cnc2c(-c3cccc(Cl)c3)csc2c1=O
→ i | -0.88
CC(C)NC(=O)c1ccc2c(c1)nc(CN1CCN(S(=O)(=O)c3cc(F)cc(F)c3)CC1)n2C
→ i | -0.4
COc1ccc(OCc2nc(CCN(C)C(=O)C3CCCCC3)no2)cc1
→ i | 0.39
CSc1ccc(-c2noc(CSc3ccc(-c4ccccc4)nn3)n2)cc1
→ i | 1.5
Cc1cccc(-c2cnc(Nc3cccc(C(=O)NC(C)C)c3)nc2)c1
→ i | 0.94
CC(=O)c1cnc2cc(C(=O)O)nn2c1C
→ i | 0.92
Cc1nnc(N2CCC(C(=O)Nc3ccccc3F)CC2)c2nn(-c3ccc(Cl)cc3)c(C)c12
→ i | -0.09
Cc1nc2nc(-c3ccccc3)nn2c(C)c1CC(=O)N1CCCCC1
→ i | -0.24
O=C(Cc1ccccc1)Nc1c2c(nn1-c1ccc(F)cc1)CSC2
→ i | 1.6
COc1ccccc1CNC(=O)COc1cc(C)c2c(-c3cccc(C)c3)nn(-c3ccccc3)c2n1
→ i | 0.04
NC(=O)Cn1c2ccccc2c2ncn(Cc3nc(C4CC4)no3)c(=O)c21
→ i | 0.66
Cc1nc(-c2csc(S(=O)(=O)N3CCN(c4cccc(Cl)c4)CC3)c2)sc1C
→ i | 1
Cc1ccccc1S(=O)(=O)Nc1ccc(C2(C(=O)NCCC(C)C)CC2)cc1
→ i | -0.04
CN(C)S(=O)(=O)c1ccc2c(c1)N(CC(=O)NCCN1CCCCC1)C(=O)C1CCCCN21 (stereo not given)
→ i | 0.2
CO[C@H]1C[C@@H]2CC[C@@H](C)[C@@](O)(O2)C(=O)C(=O)N2CCCC[C@H]2C(=O)O[C@H]([C@@H](C)C[C@@H]2CC[C@@H](O)[C@H](OC)C2)CC(=O)[C@H](C)/C=C(\C)[C@@H](O)[C@@H](OC)C(=O)[C@H](C)C[C@H](C)/C=C/C=C/C=C/1C
→ i | -1.1
c1ccc(SCc2nnc3sc(-c4ccc5ccccc5n4)nn23)cc1
→ i | -1.3
COc1cc(NS(=O)(=O)c2cc(F)ccc2CN2C(=O)c3cccnc3C2=O)cc(OC)c1
→ i | -0.4
CCSc1ncc(Cl)c(C(=O)N(Cc2ccccc2Cl)C2CCS(=O)(=O)C2)n1 (stereo not given)
→ i | -0.35
Cc1nc2ncnn2c(NCc2ccc(F)cc2)c1C
→ i | -1.9
Clc1ccc(-c2ccc(CNCC3CCCO3)o2)c(Cl)c1 (stereo not given)
→ i | -1.5
Cc1nc(C)c(C(=O)NC2CCCC2)s1
→ i | -0.24
CCc1nc2ccccc2n1CC(O)COc1cc(C)c(Cl)c(C)c1 (stereo not given)
→ i | 1
CCCCS(=O)(=O)N1CCCN(C2=NS(=O)(=O)C(c3ccc(C)cc3)=C2C)CC1
→ i | 0.84
CCN(CC)S(=O)(=O)c1ccc(C(=O)N(c2ccc(Cl)cc2)C2C=CS(=O)(=O)C2)cc1 (stereo not given)
→ i | 0.81
Cc1n[nH]c(=O)nc1SCC(=O)Nc1ccc(C(C)(C)C)cc1
→ i | -1.2
CNC(=O)Cc1ccc(-n2c(=O)c3ccccc3n(CC(=O)NC(C)C)c2=O)cc1
→ i | -0.22
Cc1nn(-c2ccc(F)cc2)c2sc(C(=O)NC(C)C)cc12
→ i | 0.47
COc1ccc(Cc2nnc3sc(COc4ccc(OC)cc4)nn23)cc1
→ i | 0.67
O=C(CSc1ncnc2nc(N3CCSCC3)sc12)Nc1ccc2c(c1)OCCO2
→ i | 0.21
Cc1nc(N2CCC(C(=O)NC3CCS(=O)(=O)C3)CC2)c2c(C)c(C)oc2n1 (stereo not given)
→ i | -0.27
CCc1c(C)nc2ncnn2c1Sc1ccccc1NC(=O)Nc1ccc(OC)cc1
→ i | -0.99

(list continues)
Every second line gives: Choline anaer gr | Choline anaer gr early
Cc1ccc2oc(C(=O)Nc3cccnc3)cc(=O)c2c1
→ i | 0.4
CNc1nc(-c2ccc3c(N)n[nH]c3c2)cc(N2CC(C(=O)NC3CCCCC3)CCC2C)n1 (stereo not given)
→ i | 0.17
O=C(NC1CC1)c1cccc(CN2C(=O)C3CCCN3C(=O)c3ccccc32)c1 (stereo not given)
→ i | 0.07
O=C1CCCCC1Oc1cc(O)c2c(=O)cc(-c3ccccc3)oc2c1 (stereo not given)
→ i | 0.58
O=C(O)[C@@H]1CCCN1C(=O)COc1ccc2c3c(c(=O)oc2c1)CCC3
→ i | 0.67
COc1ccc(C2CC(=O)C3=C(C2)Nc2onc(C)c2C3c2cccnc2)cc1OC (stereo not given)
→ i | 0.86
Cc1ccc(Cn2c(=O)c3nn(C)cc3n3c(=O)n(Cc4cc(C)ccc4C)nc23)cc1
→ i | 0.31
CCN(CC)S(=O)(=O)c1ccc2c(c1)cc(C(=O)N1CCN(c3cccc(Cl)c3)CC1)n2C
→ i | 0.43
CCn1ncc(N)c(N(C)C)c1=O
→ i | 0.5
CC1=NS(=O)(=O)c2cc(Cl)ccc2N1
→ i | -0.05&0.09&0.33&0.01&0.18&-0.41
Cc1c(C)n(-c2ccccc2)c2ncn(CCC(=O)NC(C)C)c(=O)c12
→ i | -1.5
CCOc1ccc(CCNC(=O)c2ccc3c(c2)sc2nc(-c4ccc(F)cc4)cn23)cc1OCC
→ i | 0.32
O=C(NCCc1ccccc1)Nc1cccc(-c2noc(C3CCC3)n2)c1
→ i | 1.1
CN(CCNC(=O)C1CCCN(c2nc3ccccc3[nH]2)C1)C1CCCCC1 (stereo not given)
→ i | -0.38
CCN(C(=O)CN1C(=O)C2CCCC2=Nc2ccccc21)c1ccccc1 (stereo not given)
→ i | -0.36
O=C(Nc1ccc(F)cc1F)C1Nc2cc(F)ccc2S(=O)(=O)N1 (stereo not given)
→ i | -0.71
O=C(CSc1ncnc2nc(N3CCCC3)sc12)Nc1ccc2c(c1)CCC2
→ i | 0.47

Compound profiles, from the list above.
O=C(Cn1ncn2c(cc3sccc32)c1=O)NC1CCCc2ccccc21 (stereo not given) as listed: Choline anaer gr = i; Choline anaer gr early = 0.31
CCN(C(=O)CN1C(=O)C2CCCC2=Nc2ccccc21)c1ccccc1 (stereo not given) as listed: Choline anaer gr = i; Choline anaer gr early = -0.36
CCc1nc2ccccc2n1CC(O)COc1cc(C)c(Cl)c(C)c1 (stereo not given) as listed: Choline anaer gr = i; Choline anaer gr early = 1

Not all compounds are listed, so the mix of outcomes need not match the whole.
